YjeE inh – inhibitors of E. coli YjeE (TsaE); P0AF67; purified YjeE, fluorescence polarisation of a bound ADP probe; Potency, µM; actives 0.05% (n = 71,000); AID 605; active = well fitted falling curve; inconclusive = weaker or top-dose-only fall, or a rising curve; inactive = flat or poorly fitted curve;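 further: top concentration of the series not given in the record; excess ADP was the control for the full effect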
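Fluorescence polarization of a BODIPY Texas Red–ADP probe (2 uM) bound to purified YjeE (10 uM) was read after 15 min room-temperature incubation with compounds. Loss of polarization marks inhibitors; ADP serves as titrated control.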
Bst PK mod – alters activity of Bacillus stearothermophilus pyruvate kinase; partly purified Bacillus stearothermophilus pyruvate kinase, luminescence ATP production; ribose 5-phosphate activator present at AC10; actives 1.2% (n = 51,000); Potency, µM; in the data active means potency below about 11 µM; inconclusive means mostly about 12 µM to 25 µM; inactive means weaker than that;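 the screen sought inhibitors and activators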;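 further: potency means the concentration at half of the fitted maximal effect; scaled between full activation by ribose 5 phosphate and full inhibition by luteolin; about four in five hits inhibit and the cells do not say which; series up to 57 µM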
Numbers without * were called inactive; i = inactive; u = inconclusive; x = no result given. This is a subset, so the mix of outcomes need not match the whole.

YjeE inh,Bst PK mod,Compound
i,>57,CCCCCC(=O)N1CCN(CCN=CC2=C(O)CC(c3ccco3)CC2=O)CC1 (stereo not drawn)
i,>57,COC(=O)c1nc(NC2=NCCCCC2)n[nH]1
i,>57,CC(=O)C1=C(C)NC(=O)NC1c1cccc(O)c1 (stereo not drawn)
i,x,O=C1c2nc3ccccn3c2C(=O)N1Cc1ccccc1
i,>57,CC1=Nc2ncnn2C(c2ccccc2)/C1=N\O (stereo not drawn)
i,x,COc1cccc(C2CC(c3ccc(C)cc3)n3nc(N)nc3N2)c1 (stereo not drawn)
i,x,COc1ccc(C(=O)N2CCC[C@@]3(CCN(C(=O)Nc4cccc(F)c4)C3)C2)cc1
i,>57,Cc1oc(-c2ccccc2F)nc1CS(=O)(=O)CC(=O)NCCCN(C)C1CCCCC1
i,>57,C=CCc1c(C)nc(SC)nc1Nc1ccc(C(=O)O)cc1
i,i,CC1CCC/C(=C\Nc2ccc3c(c2)OCO3)C1=O (stereo not drawn)

(list continues)
YjeE inh,Bst PK mod,Compound
i,>57,O=C(C1Cc2ccccc2CN1S(=O)(=O)c1cccs1)N1CCCCCC1 (stereo not drawn)
i,>57,Cc1cc(C(=O)N2CCC(C(F)(F)F)n3nccc32)on1 (stereo not drawn)
i,>57,CCOC(=O)c1ccc(NC(=O)CN2C(=O)CNC2=O)cc1
i,>57,Cn1c(NCc2ccco2)nc2c1c(=O)n(Cc1ccc(Cl)cc1)c(=O)n2C
i,>57,CCOC(=O)C1C(=O)NC(N2CCN(c3ccccc3)CC2)=NC1c1ccco1 (stereo not drawn)
i,>57,CCOc1cc(N2CCOCC2)c(OCC)cc1NC(=O)c1ccc(=O)n(Cc2ccccc2)n1
i,>57,CC(C)CC(C(=O)Nc1ccc2c(c1)OCCO2)N1C(=O)c2ccccc2C1=O (stereo not drawn)
i,x,CCOC(=O)N1CCN(c2c(N3CCN(c4ccccc4OC)CC3)c(=O)c2=O)CC1
i,>57,CCOCCc1nnc(NC(=O)COC)s1
i,x,O=S(=O)(c1ccccc1)N1CCC2(CCCN(Cc3ccccc3)C2)CC1

Additional records follow.
YjeE inh,Bst PK mod,Compound
i,i,c1ccc(-c2ccc(-c3ccccn3)nn2)nc1
i,x,Cc1cccc(O)c1C
i,>57,Nc1[nH]nc2nc(N3CCOCC3)nc(-c3ccccc3)c12
i,>57,Brc1cccc(-c2nnco2)c1
i,>57,CCCc1[nH]nc2c1C(c1cc(OC)ccc1F)C(C#N)=C(N)O2 (stereo not drawn)
i,>57,COc1cc(C2C(C#N)=C(N)Oc3c2oc(CO)cc3=O)cc(OC)c1OC (stereo not drawn)
i,>57,COc1ccc(NC(=O)c2cc(=O)c3ccccc3o2)cn1
i,>57,COCC(=O)Nc1ccc(C)c(Cl)c1
i,x,COc1ccc(N=C2SC(C(=O)O)CC(=O)N2C)cc1 (stereo not drawn)
i,>57,Cc1ccc(S(=O)(=O)N2CCC(C(=O)N[C@H](C(=O)N3CCN(C)CC3)C(C)C)CC2)cc1

Later entries:
YjeE inh,Bst PK mod,Compound
i,x,CCOc1ccc(OCCN2C(=O)NC3(CCCc4ccccc43)C2=O)cc1 (stereo not drawn)
i,>57,COC(=O)c1cc(-c2c(C)oc3cc(OC(C)C)ccc3c2=O)c(C)o1
i,x,Cc1ccc(C)c(/C(=N\N=C(N)N)C2CC2)c1
i,x,CCC(=O)NCCn1c(C)cc2ccccc21
i,>57,c1nc(NCC2CCCO2)c2[nH]cnc2n1 (stereo not drawn)
i,>57,CS(=O)(=O)N(Cc1cc2ccccc2[nH]c1=O)C1CCCCC1
i,>57,O=C(CN1C(=O)CC(c2ccccc2)=Nc2ccccc21)NCc1ccco1
i,x,CCCn1c(C)nc2c(NCCN3CCCCC3)nc(C)nc21
i,>57,CCC(=O)N1CCc2cc(S(=O)(=O)NC(C(=O)NCc3ccc(F)cc3)C(C)C)ccc21 (stereo not drawn)
x,>26,COc1ccccc1N1CCN(C2CCN(C(=O)c3cc(OC)c(OC)c(OC)c3)CC2)CC1

Next part:
YjeE inh,Bst PK mod,Compound
i,>57,N#Cc1nc(COc2ccccc2)oc1N1CCOCC1
i,x,COc1ccc(CCNC(=O)CSc2nc(C)nc3c2c(=O)n(C)c(=O)n3C)cc1OC
i,>57,Cc1nn2c(=O)nc3sc4c(c3c2[nH]c1=O)CCCC4
i,>57,COc1ccccc1-c1nn2c(C(F)(F)F)nnc2s1
i,>57,COc1cccc(NC(=O)N2CCN(C(=O)C(Cc3ccc(OC)c(OC)c3)NC(C)=O)CC2)c1 (stereo not drawn)
i,>57,O=C(O)c1ccc2cc[nH]c2c1
i,>57,CCC(Sc1nc2ccccc2[nH]1)C(=O)Nc1cc(C)on1 (stereo not drawn)
i,>57,Cc1cc(=O)[nH]c(SCc2nc3ccccc3s2)n1
i,>57,CCOc1cc(C2C3=C(CCCC3=O)NC3=C2C(=O)CCC3)ccc1OCCO
x,>26,CCCSc1nc(N2CCCC2)c2c(c1C#N)CC(C)(C)OC2

Full records as entered above. Values in the order: YjeE inh | Bst PK mod
`CCC(Sc1nc2ccccc2[nH]1)C(=O)Nc1cc(C)on1` (stereo not drawn) is entered as i | >57
`Cc1nn2c(=O)nc3sc4c(c3c2[nH]c1=O)CCCC4` is entered as i | >57
`COc1ccc(CCNC(=O)CSc2nc(C)nc3c2c(=O)n(C)c(=O)n3C)cc1OC` is entered as i | x
`COc1ccccc1-c1nn2c(C(F)(F)F)nnc2s1` is entered as i | >57
`CCOc1cc(C2C3=C(CCCC3=O)NC3=C2C(=O)CCC3)ccc1OCCO` is entered as i | >57

Following part:
YjeE inh,Bst PK mod,Compound
i,>57,Cc1cc(NC(=O)CSc2nnnn2Cc2ccccc2)no1
i,>57,CCOc1ccc(-c2[nH]nc3c2C(c2ccc4c(c2)OCO4)C(C#N)=C(N)O3)cc1OC (stereo not drawn)
i,x,N#Cc1cccc(-c2cncnc2NCc2cccnc2)c1
i,>57,O=C(CSc1nnc(-c2c[nH]c3ccccc23)o1)N1c2ccccc2CCc2ccccc21
i,x,COc1cc(C(=O)Nc2ccc(S(=O)(=O)Nc3onc(C)c3C)cc2)cc(OC)c1OC
i,>57,CC(=O)Nc1ccc(-c2nnn(CC(=O)c3ccccc3)n2)cc1Cl
i,x,Fc1ccc(OCc2nc(-c3ccc(Br)o3)no2)c(F)c1
i,>57,Cc1cccc(NC(=O)c2snc3c(=O)[nH]cnc23)c1
i,x,CN(C)c1ccc(NC(=O)Cn2cc3c(n2)CCCC3)cc1
x,>26,CCOC(=O)C1=C(C)NC(=O)C1CC(=O)Nc1ccccc1 (stereo not drawn)

Continuation.
YjeE inh,Bst PK mod,Compound
i,>57,O=C(CSc1nc(-c2ccco2)cc(C(F)(F)F)n1)N1CCc2ccccc2C1
i,>57,O=C(COC(=O)CNS(=O)(=O)/C=C/c1ccccc1)NC1CCS(=O)(=O)C1 (stereo not drawn)
i,x,CC(CCc1nc2ccccc2s1)(c1ccc(O)cc1)c1ccc(O)cc1
i,>57,COc1ccc(/C(O)=C2\C(=O)C(=O)N(c3cc(C)on3)C2c2ccc(OC)c(OC)c2)cc1OC (stereo not drawn)
i,>57,Nn1c(SCC(=O)Nc2ccc(F)cc2)nnc1-c1cccnc1
i,>57,O=S(=O)(NCCc1ccccc1)c1cccc(S(=O)(=O)N2CCOCC2)c1
i,x,Cc1ncn(-c2ccccc2O)c1C
i,x,CN1CCN(Cc2ccc(-c3ccc(Cl)cc3)o2)CC1
i,>57,CC(=O)Nc1nonc1-c1nc2ccccc2n1CCC#N
i,>57,Cc1cc(C)cc(N(CC(=O)NCc2cccnc2)S(C)(=O)=O)c1

Later entries
YjeE inh,Bst PK mod,Compound
i,>57,Cc1ccc(S(=O)(=O)c2nc(-c3ccc(F)cc3)oc2SCC(N)=O)cc1
i,>57,CCOC(=O)CNC(=O)C(=O)c1c(O)[nH]c2ccccc12
i,x,CCOC(=O)C1CCN(C(=O)C2CCN(c3nc4ccc(OC)cc4s3)CC2)CC1
i,>57,Cc1cc(C)n(CC(O)COc2ccccc2C(=O)Nc2ccccc2)n1 (stereo not drawn)
i,>11,O=C1c2ccccc2C(=O)N1Cc1nc(-c2ccccc2)no1
i,>57,CC(C)C(c1nnnn1Cc1ccc(F)cc1)N1CCN(C2CCCCC2)CC1 (stereo not drawn)
x,>26,CN(C)c1oc(-c2cccs2)nc1C#N
i,>57,CCc1cccc(C)c1NC(=O)C1C2CCC(O2)C1C(=O)O (stereo not drawn)
i,>57,CCn1c(=O)cc(SCC(=O)NCc2ccccn2)c2ccccc21
i,x,O=C1Cc2c([nH]c3ccc(Br)cc23)-c2ccccc2N1

(continued)
YjeE inh,Bst PK mod,Compound
i,x,COc1ccc(OC)c(-c2cc(C(=O)N3CCN(c4ccccc4)CC3)no2)c1
i,>57,Cc1csc(SCC(=O)O)n1
i,>57,N#Cc1c(N)nc(-c2ccccc2)nc1-c1ccccc1
i,x,COc1cccc(Nc2ncc3nc(CCc4ccccc4)c(=O)n(C[C@H]4CCCO4)c3n2)c1
i,x,CC(C)OC(=O)c1nnc(Cc2ccc(F)cc2)o1
i,>57,O=c1n(-c2ccccc2)c(=O)n(Cc2ccccn2)n1Cc1ccccn1
i,>57,c1ccc2c(c1)ncn2CCn1cnc2ccccc21
x,>26,NC(=O)/C(=N\O)c1ccccc1
i,>57,O=C(c1ccco1)N1CCN(c2ncnc3c2cnn3-c2ccccc2)CC1
i,x,COC(=O)CN(c1ccccc1)S(=O)(=O)c1ccccc1

Rewritten bar-delimited: part of the list above.
Molecule | YjeE inh | Bst PK mod
Cc1csc(SCC(=O)O)n1 | i | >57
N#Cc1c(N)nc(-c2ccccc2)nc1-c1ccccc1 | i | >57
COc1cccc(Nc2ncc3nc(CCc4ccccc4)c(=O)n(C[C@H]4CCCO4)c3n2)c1 | i | x
CC(C)OC(=O)c1nnc(Cc2ccc(F)cc2)o1 | i | x
O=c1n(-c2ccccc2)c(=O)n(Cc2ccccn2)n1Cc1ccccn1 | i | >57

Other entries
YjeE inh,Bst PK mod,Compound
i,x,CC(=O)N1CCC2(CC1)CN(Cc1cc(C(F)(F)F)cc(C(F)(F)F)c1)C2
i,x,CCc1ncc(C(=O)c2ccc(OC)cc2)n1C
i,>57,Cn1c(=O)c2c(nc(N3CCCCC3)n2CCSc2nc3ccccc3o2)n(C)c1=O
i,x,CCN(C(=O)COc1ncnc2scc(-c3ccc(F)cc3)c12)C1CCS(=O)(=O)C1 (stereo not drawn)
i,>57,CC(Cc1cccs1)NC(=O)NC1CCCCC1 (stereo not drawn)
i,x,CCNC(=O)[C@@H]1O[C@@H](n2cnc3c(N)nc(NCCc4ccc(CCC(=O)O)cc4)nc32)[C@H](O)[C@@H]1O
i,>57,O=c1[nH]c2ccsc2c(=O)n1-c1ccc(F)c(Cl)c1
i,>57,CN(CC(=O)N1CCc2ccccc21)S(=O)(=O)c1ccc(Br)s1
i,>57,CCc1ccc(NC(=O)N(C2CCC(C)CC2)C2CCN(C(C)=O)CC2)cc1 (stereo not drawn)
i,>57,CCCn1nnnc1SCC(=O)NCc1ccc(OC)cc1

More structures follow.
YjeE inh,Bst PK mod,Compound
x,>11,CCOc1cccc(C2C(C#N)=C(N)Oc3cc(C)oc(=O)c32)c1OCC (stereo not drawn)
i,>57,COC(=O)c1[nH]c2cccc(OC)c2c1NC(=O)CCN1CCC(C)CC1
i,x,COc1ccccc1CNc1ncnc2ccc(-c3ccoc3)cc12
x,>26,CCC1(C)Cc2c(sc3c2c(=O)n(C)c2nnc(SCC(=O)c4ccc(Cl)cc4)n32)CO1 (stereo not drawn)
i,x,Cc1ccc(C(=O)Nc2nc3ccccc3n2CCN2CCCC2)cc1
i,x,COc1ccc(Oc2ncc3nc(-c4cccs4)c(=O)n(-c4ccccc4)c3n2)cc1
i,>57,CC12C=CC3(O1)C(C(=O)N(c1cccnc1)C3C(=O)NC1CCCCC1)C2C(=O)Nc1ccccc1 (stereo not drawn)
x,>26,CCOc1ccc(S(=O)(=O)NC(C)(C)C)cc1-c1nc2c(C(C)(C)C)nn(C)c2c(=O)[nH]1
i,x,COc1ccc(-c2nc3cnc(Nc4cccc(OC)c4)nc3n(Cc3cccs3)c2=O)cc1
i,>57,O=C(CC1(O)C(=O)Nc2cc(Cl)cc(Cl)c21)c1ccncc1 (stereo not drawn)

(continued)
YjeE inh,Bst PK mod,Compound
i,x,Nc1nc(SCC(=O)N2CCCc3ccccc32)n(-c2ccccc2)n1
i,>57,CCOC(=O)C1=C(C)NC(C)=C(C(=O)OCC)C1C(=O)OCC(=O)N1CCC(C)CC1
i,x,COc1ccccc1-c1cncnc1NCCc1cnc[nH]1
i,>57,O=C(O)c1cccc(C(=O)Nc2cccc(NC(=O)C3CCCO3)c2)c1 (stereo not drawn)
i,>57,Cn1c(=O)[nH]c(=O)c2c1nc(N1CCN(Cc3ccccc3)CC1)n2CCCc1ccccc1
i,x,COc1ccc(C)cc1S(=O)(=O)Nc1ccc(F)c(Cl)c1
i,>57,O=C(CN(CC1CCCO1)C(=O)CNS(=O)(=O)c1ccccc1)NCc1ccccc1 (stereo not drawn)
u,>57,O=S(=O)(c1cccc(-c2nnc(SCc3nc4ccccc4s3)o2)c1)N1CCOCC1
i,>57,COc1cccc(-n2c(COc3ccc(C)cc3)nnc2SCC(=O)O)c1
i,>57,CC(C)N(C(=O)CSc1nnc(NC(=O)C2CCC2)s1)C(C)C
i,>57,COc1ccc(-c2ccc(-c3nnc(-c4cc(OC)ccc4OC)o3)cc2)cc1
i,x,CCOc1ccc(N2CC(C(=O)Nc3ncccc3C)CC2=O)cc1 (stereo not drawn)
i,>57,CCCCc1nc2ccccc2c(=O)n1NC(=O)c1c(O)c2cccc3c2n(c1=O)CC3

Source: PubChem (National Center for Advancing Translational Sciences (NCATS))
